# LANA-H2A inh: blocks KSHV LANA binding to histone H2A/H2B; AID 2629; cell-free LANA-H2A/H2B peptide, fluorescence polarization; Q9QR71; inhibition, % (concentration not given with the values); actives 0.6% (n = 320,000); in the data active = inhibition mostly above about 10%, no sharp cut-off; inactive = mostly below about 6.7%;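 note: stock transfer was 7.5 nL into about 10 µL; 0% = median of vehicle wells and 100% = median of positive control wells; one replicate is shown; the record names a cut of 25% in any replicate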
# Target sequence (Q9QR71 whole entry, looked up): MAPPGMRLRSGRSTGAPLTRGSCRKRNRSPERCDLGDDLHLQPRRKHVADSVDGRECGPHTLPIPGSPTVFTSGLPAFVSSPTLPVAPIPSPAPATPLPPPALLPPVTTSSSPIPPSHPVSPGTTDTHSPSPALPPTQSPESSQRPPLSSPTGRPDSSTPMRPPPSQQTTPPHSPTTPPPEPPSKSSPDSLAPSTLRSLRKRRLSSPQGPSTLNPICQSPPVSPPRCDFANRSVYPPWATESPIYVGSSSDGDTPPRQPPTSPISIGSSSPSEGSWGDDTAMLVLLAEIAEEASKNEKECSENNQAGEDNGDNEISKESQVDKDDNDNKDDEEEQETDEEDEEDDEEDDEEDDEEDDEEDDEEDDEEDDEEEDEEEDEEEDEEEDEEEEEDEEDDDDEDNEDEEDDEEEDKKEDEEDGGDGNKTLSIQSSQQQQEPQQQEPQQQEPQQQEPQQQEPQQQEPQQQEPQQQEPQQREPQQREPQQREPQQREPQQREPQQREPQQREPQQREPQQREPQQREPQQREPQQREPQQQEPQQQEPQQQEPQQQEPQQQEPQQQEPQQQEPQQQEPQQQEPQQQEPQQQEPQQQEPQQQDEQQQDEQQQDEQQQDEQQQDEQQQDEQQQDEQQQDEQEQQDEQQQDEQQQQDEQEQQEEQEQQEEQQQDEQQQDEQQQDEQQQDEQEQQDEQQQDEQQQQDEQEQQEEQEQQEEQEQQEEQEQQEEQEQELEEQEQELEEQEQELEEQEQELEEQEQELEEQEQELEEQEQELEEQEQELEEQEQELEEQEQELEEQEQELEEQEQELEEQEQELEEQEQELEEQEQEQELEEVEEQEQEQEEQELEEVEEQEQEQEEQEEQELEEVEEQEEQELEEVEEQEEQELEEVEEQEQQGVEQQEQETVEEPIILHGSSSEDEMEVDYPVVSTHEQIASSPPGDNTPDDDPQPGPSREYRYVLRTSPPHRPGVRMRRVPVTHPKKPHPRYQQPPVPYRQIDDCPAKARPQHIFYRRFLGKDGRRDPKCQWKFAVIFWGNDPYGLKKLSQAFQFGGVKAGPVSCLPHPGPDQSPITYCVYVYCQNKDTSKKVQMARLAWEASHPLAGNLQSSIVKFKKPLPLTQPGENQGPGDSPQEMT
# UCH37 inh: human UCH37 deubiquitinating enzyme inhibition; purified proteasome/UCH37, Ub-AMC cleavage fluorescence; inhibition, % (no concentration beside the values); actives 0.33% (n = 330,000);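 active = mean of two replicates above 20%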;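 note: 0% = compound-free wells with enzyme and 100% = wells lacking proteasome; stock transfer was 100 nL into about 20 µL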
#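 Signal – fluorescence, ex 355 nm, em 460 nm · System – Proteasome-bound UCH37 · Input – 0.15 nM proteasome as dispensed · Timing – 30 min preincubation with enzyme, 25 min cleavage at room temperature · Read-out basis – percent inhibition of cleavage signal versus uninhibited and no-proteasome wells · Medium – Tris-HCl pH 7.4 with ATP-MgCl2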
# Vif A3G: inhibitors of Vif binding to APOBEC3G peptide, primary screen, biochemical, TR-FRET, GST-Vif 1-94, biotin-A3G peptide, dose response retest (AID 1117319); TR-FRET GST-Vif / biotin-A3G peptide binding; higher % means a stronger effect; test concentration not given here; strong numbers were not always called active; inhibition, %; hits with a dose series show IC50 in µM; actives 0.57% (n = 260,000);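 active = above the screen mean plus three standard deviations and confirmed in dose response; inconclusive = results disagree or hit not tested in dose response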;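 note: Vif residues 1-94 fused to GST binding biotinylated APOBEC3G peptide 110-148; 0% = full assay without inhibitor and 100% = GST in place of GST-Vif; retest series ran down from 100 µM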
# Bfl-1 A1 inh: inhibitors of the anti-apoptotic protein A1, read as caspase activation; MEF A1-2A-BIM cells, Caspase-Glo 3/7 luminescence, 3 h; percent of clofoctol response, vehicle zero; caspase activation, % (no concentration beside the values); actives 0.066% (n = 330,000); AID 2462;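 active = over half of replicate activation scores above 10%, or exactly half above 10 with the replicate mean above 10; inconclusive = replicate mean below 10 yet half the replicates above 10; inactive = over half of replicates below 10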;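 note: wells of about 30 µL received 50 nL stock; many hits fall short of the cut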
# B2AR ag: agonists of human beta-2 adrenergic receptor inducing internalization; actives 0.43% (n = 340,000); AID 504454; Am2.2-beta2AR cells, FAP receptor internalization, flow cytometry; reference of the scale not given here; response, % (no concentration beside the values);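 active = response above a set limit, near 3 SD of response in nonfluorescent compounds, cut at about 42% in these data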;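 note: stock transfer was 100 nL into about 11 µL; a reference agonist was the positive control; negative values mostly stem from fluorescent compounds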
# Ecoli growth: blocks Escherichia coli growth. OD600, 23 h; active compounds read low. OD600 absorbance (test concentration not listed). actives 0.21% (n = 330,000);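 active = OD600 absorbance below the run mean of sample wells minus 3.6 SD, in any replicate, cut at about 0.56 in these data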;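 note: stock transfer was 300 nL into about 60 µL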
# HNF4A DNA FP: change in binding of human HNF4 alpha to DNA; activity change, % at 10 µM; AID 1224865; actives 0.3% (n = 360,000); HNF4a-FITC DNA binding, fluorescence polarization, 1 h; in the data active = activity change above about 30%, passing the limit was not always enough;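 note: controls were the assay level and a saturating level of protein; the project sought stronger binding though the title names inhibitors; some compounds called inactive have numbers as strong as hits; positive values seem to mean higher polarization but the record does not say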
# * marks the source's active call; other numbers are inactive results; i = inactive; u = inconclusive; x = no result given.
SMILES,LANA-H2A inh,UCH37 inh,Vif A3G,Bfl-1 A1 inh,B2AR ag,Ecoli growth,HNF4A DNA FP
Cc1cc(C)c2c(-n3cccc3)c(C(=O)NNS(=O)(=O)c3ccc(F)cc3)sc2n1,12,-0.3,6%,0.3,-3,0.7,2.9
Cc1cc2ncc(C(=O)N=CN(C)C)cn2n1,-29,0.4,6%,-0.4,2,0.73,2.5
COc1ccc(/C=C2\SC(=O)N=C2N)cc1OC,-1.8,-2.9,u,-0.2,1,0.67,-4.1
Cc1cc(-n2c(SCCC#N)nnc2-c2cccnc2)ccc1Cl,4.2,5.1,-5%,1.5,3,0.72,2.7
CC(=O)c1ccc(S(=O)c2ccccc2)cc1 (stereo not given),0.8,1.5,30%,-0.1,-1,0.66,0.4
O=C(O)COc1ccccc1/C=C1\SC(=Nc2ccc(F)cc2)N(c2ccc(F)cc2)C1=O,0.6,9.5,-9%,0.5,-3,0.68,0.9
CCn1c(SCC(=O)N2CCCCC2C)nnc1-c1ccc(S(=O)(=O)N2CCN(C)CC2)cc1 (stereo not given),-3.6,3.3,9%,0.3,3,0.7,3.6
COc1ccc2nc(-c3ccccc3)cc(C(=O)OCC(=O)NC3CC3)c2c1,x,-108,11%,x,-6,0.71,-0.1
CCN(CC)CC1(O)CCN(C(=O)c2ccc(Cl)c(Cl)c2)CC1,-1.9,-0.2,4%,0.4,1,0.71,-4.0
Cc1ccc(CN2CC(C(=O)N3CC=C(c4ccccc4)CC3)CC2=O)cc1 (stereo not given),-5.9,5.5,x,0.9,-10,0.7,-0.3
CCCCNC(=O)c1ccccc1SCc1c(C)noc1C,-3.8,-0.4,x,0.7,-1,0.67,1.3
CC(NC(=O)C1CC12CCC2)c1ccccc1 (stereo not given),-3.7,-0.3,0%,0.6,0,0.64,0.0
COc1ccc(N2C(=O)C(CC(N)=O)N(NC(=O)c3cccc(OC)c3)C2=S)cc1 (stereo not given),-5.0,3.4,u,-0.2,2,0.73,2.4
CN1CCN(C(=S)SCc2nc(N)nc(Nc3ccc(F)cc3)n2)CC1,1.4,2.4,x,0.7,1,0.67,0.8
O=S(=O)(c1ccccc1)c1nc(-c2ccco2)oc1Nc1ccccc1,-3.6,-11,u,-0.2,-14,0.66,-3.8
C=CCOn1c(=O)c(-c2ccc(OC)c(OC)c2)[n+]([O-])c2ccccc21,-7.0,9.7,-1%,0.6,-1,0.67,-1.7
O=C1CCCC2=C1C1(CCCCC1)N=C(Nc1nc3ccccc3s1)N2,-7.5,-88,0%,0.2,-5,0.71,-1.6
COc1cccc(-c2nn[nH]n2)c1O,3.1,2.9,1%,-0.5,3,0.67,9.8
O=C(NCC1CCCO1)C1CCC(=O)N1Cc1ccc(F)cc1 (stereo not given),23,4.0,6%,0.1,1,0.71,5.3
O=C(CCCn1c(=O)[nH]c2cc(Cl)ccc2c1=O)NCCCN1CCCC1,2.0,5.9,1%,-0.8,-2,0.77,5.3
CCN(C(=O)CSc1nnc(Nc2ccc(OC)cc2)s1)C1CCS(=O)(=O)C1 (stereo not given),-12,3.2,-5%,-0.5,-3,0.64,0.0
COc1cccc([C@@H]2Oc3ccc(OC)cc3C(=O)[C@H]2OC(=O)N[C@H](C)C2CCCCC2)c1,-1.6,-2.2,6%,0.6,x,x,x
COc1ccc(NC(=O)CN(C)C(=O)C2CC(=O)N(c3cccc4ccccc34)C2)cc1 (stereo not given),x,3.6,2%,x,-5,0.66,0.1
O=C(COc1ccccc1O)Nc1ccc(Cl)cc1,3.6,5.6,u,0.6,-1,0.66,-0.1
Cc1ccccc1CN(C)CC(=O)Nc1ccccc1-c1ccccc1,-2.2,4.1,x,u,-6,0.62,-6.8
O=C(CN1C(=O)C(=O)c2ccccc21)NCCc1ccccc1,5.0,3.6,20%,-0.5,2,0.63,-2.1
O=C(Nc1ccccc1NC(=O)c1ccccc1F)c1ccccc1F,-9.8,x,-3%,1.7,2,x,-0.1
COC(=O)CCC(=O)OC1(C)C(=O)C=C2C=C3CCCN3C=C2C1=O (stereo not given),-1.0,7.3,2.2µM*,0.5,1,0.7,-4.7
CCOC(=O)c1sc(N/N=C/c2ccc(N(C)C)cc2)nc1C,0.5,x,x,1.6,9,x,3.2
Cc1ccnc(NC(=O)CC(c2ccccc2)c2ccccc2)n1,1.8,4.0,-8%,-0.1,-7,0.68,4.0
C=CCNC(=S)N/N=C/c1cn(C)c2ccccc12,-5.6,x,11%,0.0,3,x,0.9
COc1cc(-c2ccc(NC(=O)CN3CCC(C)CC3)c(OC)c2)ccc1NC(=O)CN1CCC(C)CC1,x,-1.1,-3%,x,3,0.69,11
Cc1ccc(/C=N/n2c(-c3ccncc3)n[nH]c2=S)o1,0.3,x,-1%,-0.7,6,x,-0.8
O=C(Nc1ccc(Cl)cc1)c1csc(-c2ccncc2)n1,-4.3,1.8,-7%,-0.9,-4,0.67,0.7
COc1ccc(OC)c(-c2cc(C(=O)N3CCCc4ccccc43)no2)c1,-6.6,2.0,1%,0.8,0,0.65,-2.6
O=C(CN1CCc2ccccc21)NN1CC(=O)N(c2ccccc2)CC1=O,-11,1.8,1%,0.0,4,0.68,5.2

# Sorted by formula weight (descending): five of the compounds above.
SMILES,LANA-H2A inh,UCH37 inh,Vif A3G,Bfl-1 A1 inh,B2AR ag,Ecoli growth,HNF4A DNA FP
COc1ccc(OC)c(-c2cc(C(=O)N3CCCc4ccccc43)no2)c1,-6.6,2.0,1%,0.8,0,0.65,-2.6
COC(=O)CCC(=O)OC1(C)C(=O)C=C2C=C3CCCN3C=C2C1=O (stereo not given),-1.0,7.3,2.2µM*,0.5,1,0.7,-4.7
Cc1ccccc1CN(C)CC(=O)Nc1ccccc1-c1ccccc1,-2.2,4.1,x,u,-6,0.62,-6.8
O=C(CN1C(=O)C(=O)c2ccccc21)NCCc1ccccc1,5.0,3.6,20%,-0.5,2,0.63,-2.1
C=CCNC(=S)N/N=C/c1cn(C)c2ccccc12,-5.6,x,11%,0.0,3,x,0.9

# (next part)
SMILES,LANA-H2A inh,UCH37 inh,Vif A3G,Bfl-1 A1 inh,B2AR ag,Ecoli growth,HNF4A DNA FP
O=C(OCC(=O)N1CCOCC1)c1ccccc1OCc1ccccc1,1.9,5.0,-2%,0.0,-7,0.67,0.0
O=C(Nc1ccc2c(c1)OCO2)c1cc2n(n1)C(C(F)(F)F)CC(c1ccccc1)N2 (stereo not given),1.1,2.4,-4%,0.5,6,0.69,-2.1
Cc1ccc(-c2cc(C(=O)N/N=C/c3ccccc3O)n[nH]2)o1,-6.5,x,x,-3.9,14,x,1.5
CC[C@@H]1C=C(C(=O)O)[C@H](c2ccc(Br)cc2)N1S(=O)(=O)c1ccc(C)cc1,x,3.7,x,x,1,0.7,2.3
O=C(CSc1nnnn1-c1cccc2c1CCCC2)NC1CCCC1,-2.4,0.5,8%,0.5,14,0.73,-2.4
CC(C)(C)OC(=O)NCCCCC1=CC2=CC(=O)C(C)(O)C(=O)C2=CO1 (stereo not given),-6.7,2.8,x,0.7,0,0.71,-0.7
CCOC(=O)c1c(-c2ccccc2)nc2cc(C)ccn12,-0.7,0.9,14%,-0.5,-16,0.69,-2.6
COC(=O)C1=C(O)/C(=C\c2cc(C)n(-c3ccc(F)cc3)c2C)N=C1C,0.1,-1.7,u,0.7,69*,0.68,0.1
Cn1ccc(C(=O)OCC(=O)Nc2cccc(Cl)c2)n1,-2.8,1.9,x,0.0,6,0.66,-3.5
COc1ccccc1-c1c(C)nn2c(C)cc(C)nc12,-1.1,5.4,u,0.3,-2,0.71,-0.4
O=CN1CCN(C(=O)C(=O)c2cn(CC(=O)N3CCCCC3)c3ccccc23)CC1,-2.6,3.2,x,-0.1,1,0.69,8.2
O=C(/C=C/c1cccc(Cl)c1)Nc1ncccn1,-2.7,3.6,21%,-2.0,-10,0.64,0.1
Cc1cccc(C)c1N1CCN(c2nc(N(C)C)oc(=O)c2C#N)CC1,4.3,0.8,6%,0.2,3,0.73,-0.4
CSc1nsc(SCC(=O)Nc2nncs2)n1,4.3,0.9,10%,0.4,-5,0.66,3.3
COCCN(Cc1cc2cc(C)ccc2n2nnnc12)C(=S)Nc1cccc(C)c1,-0.8,6.4,-10%,-0.1,-5,0.7,6.9
CCCS(=O)(=O)N1CCN(Cc2ccccc2OCC)CC1,2.4,3.9,15%,0.4,-3,0.72,0.6
Cc1cc(N2CCOCC2)n2nc(-c3cccc(F)c3)cc2n1,-2.1,-375,32%,-1.5,-15,0.65,-5.0
O=C(CNC(=O)c1ccco1)N/N=C/c1ccc(C(=O)O)cc1,3.8,x,x,0.2,4,x,0.2
CN(Cc1ccccc1)C(=O)c1nc2ccccn2c1CNCCOc1cccnc1,-1.1,1.4,x,0.2,-9,0.72,-2.6
COc1cc(C(=O)N2CCN(Cc3ccccn3)CC2)cc(OC)c1OC,2.7,0.3,-13%,0.0,8,0.69,-2.4
Cc1ccc(C)c(OC(=O)c2cccnc2)c1,-0.1,1.4,x,-0.2,-4,0.68,-0.9
COc1ccccc1NC(=O)CSc1nc2ccccc2nc1N1CC(C)OC(C)C1 (stereo not given),-2.2,-4.9,x,-0.5,-2,0.69,-3.2
C[C@H](CO)N1C[C@H](C)[C@H](CN(C)C(=O)Nc2ccc(F)cc2)Oc2ccc(NC(=O)NC3CCCCC3)cc2CC1=O,-0.3,4.1,x,-1.4,3,0.77,-0.6
Nc1c(Cl)cc(Cl)cc1C(=O)OCC(=O)NC1CC1,1.2,i,12%,-0.6,-6,0.73,0.5
CCOc1ccc(NC(=O)CSc2nnc(C)n2CC2CCCO2)cc1 (stereo not given),-8.7,5.3,-2%,2.3,0,0.69,-1.1
COc1ccc(Cl)cc1NC(=O)Cn1c(=O)oc2ccccc21,-3.0,4.7,-2%,0.3,-5,0.74,1.2
COc1ccc(CC(=O)N2CCN(c3ccccc3OC)CC2)cc1,-5.0,0.0,0%,0.8,-4,0.68,-1.4
COc1ccc(N/C=C\C(=O)c2ccc3ccccc3c2)cc1,3.2,6.7,x,-4.1,4,0.67,0.8
CCCc1cc(=O)oc2cc(OCC(=O)NC(Cc3ccc(Cl)cc3)C(=O)O)ccc12 (stereo not given),1.3,-37,x,-0.9,-12,0.72,0.3
CN(C)c1ccc(/C=C2\SC(=O)N(CC(O)Cn3c4ccccc4c4ccccc43)C2=O)cc1 (stereo not given),-6.3,3.5,x,0.4,-24,0.75,6.2
O=C(CCCCCn1c(=S)[nH]c2ccc(N3CCOCC3)cc2c1=O)NC1CCN(Cc2ccccc2)CC1,5.0,-40,x,1.6,-5,0.7,3.4
COc1ccc(CC(=O)Nc2ccccc2N2CCCC2)cc1,-2.3,0.7,x,-0.4,2,0.72,-3.1
COc1ccc(N(CC(=O)NN=C2CCCCCCC2)S(=O)(=O)c2ccccc2)cc1Cl,-1.5,1.3,5%,u,-1,0.73,6.2
Cc1cc(=O)[nH]c(/N=C(\N)Nc2ccc3c(c2)OCCO3)n1,0.7,x,3%,-0.6,3,x,2.6
CCOC(=O)C1CCN(S(=O)(=O)c2ccc(OC)c(C(=O)N3CCCCC3)c2)CC1,3.9,1.4,x,-0.7,-1,0.69,-3.7
NS(=O)(=O)c1ccc(NC(=O)CNC(=O)c2ccc3c(c2)OCO3)cc1,6.9,0.6,-13%,-0.2,0,0.7,-2.1

# Screening data as filed in PubChem.
